Assay outcomes: PubChem, National Center for Advancing Translational Sciences (NCATS)
Six1-Eya2 inh – Six1/Eya2 interaction inhibition; Q15475+O00167; AlphaScreen GST-Six1/His-Eya2 binding, biochemical; hits give low values; control for the full effect not named in the record; activity change, % (test concentration not listed); 0.56% of 360,000 active; AID 651725; in the data active = activity change below about -65%; inconclusive = about -30% to -65%; inactive = above about -30%; note: % is set by controls: 0 for no effect and ±100 for the full control effect; compound concentration not given in the record
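AlphaScreen with GST-Six1 and His-Eya2 (5X mix: 250 nM and 500 nM), glutathione donor and nickel acceptor beads; buffer 50 mM Tris pH 8.0, 300 mM NaCl, 1 mM TCEP; 1 h at 37 C in the dark.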
TRPML1 agonist – activates the human TRPML1 channel; Q9GZU1; TRPML1-expressing cells, Ca2+ dye fluorescence, FDSS; host cell line not named in the record; reference of the full effect not given here; activation, % (concentration not given with the values); 0.12% of 410,000 active; in the data active = activation above about 50%; inconclusive = about 30% to 50%; inactive = below about 30%; note: 0% is about no effect; the text of the record puts the active cut at 80%
Target sequence (Q9GZU1 whole entry, looked up): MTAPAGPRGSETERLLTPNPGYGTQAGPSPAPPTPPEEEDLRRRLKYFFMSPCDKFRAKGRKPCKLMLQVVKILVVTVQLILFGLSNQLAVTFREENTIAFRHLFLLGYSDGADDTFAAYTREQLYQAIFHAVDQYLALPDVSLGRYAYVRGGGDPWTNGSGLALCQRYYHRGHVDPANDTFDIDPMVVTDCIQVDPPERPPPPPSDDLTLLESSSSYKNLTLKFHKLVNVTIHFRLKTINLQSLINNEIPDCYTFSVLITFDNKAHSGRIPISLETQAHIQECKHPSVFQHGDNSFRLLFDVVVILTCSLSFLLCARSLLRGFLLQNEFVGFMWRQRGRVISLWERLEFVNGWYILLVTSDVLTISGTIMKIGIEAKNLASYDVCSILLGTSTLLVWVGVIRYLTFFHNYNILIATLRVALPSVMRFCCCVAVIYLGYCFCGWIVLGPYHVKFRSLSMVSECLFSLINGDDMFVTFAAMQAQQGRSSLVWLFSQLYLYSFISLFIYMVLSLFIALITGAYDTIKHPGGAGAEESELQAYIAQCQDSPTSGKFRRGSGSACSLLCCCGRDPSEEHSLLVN
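Cells: TRPML1-DL, 1X Tet inducer, ~16 h at 37 degrees C/5% CO2. Dye: ABD Ca8 no-wash + quencher, 45-90 min RT. Read: 10 s baseline, compound add, 110 s agonist phase; 54-4 EC80 (4uM final), 110 s antagonist phase.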
D2 PAM – potentiates the human D2 dopamine receptor allosterically. P14416. potentiation, % (no concentration beside the values). DiscoveRx D2 beta-arrestin cells, luminescence, 90 min; 100% = 57 uM dopamine signal. 0.23% of 360,000 active; active = potentiation of 50% or more; inconclusive = 30% to 50%; inactive = 30% or less;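 note: compound concentration not given in the record; tested on top of an EC20 dose of dopamine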
Target sequence (P14416 whole entry, looked up): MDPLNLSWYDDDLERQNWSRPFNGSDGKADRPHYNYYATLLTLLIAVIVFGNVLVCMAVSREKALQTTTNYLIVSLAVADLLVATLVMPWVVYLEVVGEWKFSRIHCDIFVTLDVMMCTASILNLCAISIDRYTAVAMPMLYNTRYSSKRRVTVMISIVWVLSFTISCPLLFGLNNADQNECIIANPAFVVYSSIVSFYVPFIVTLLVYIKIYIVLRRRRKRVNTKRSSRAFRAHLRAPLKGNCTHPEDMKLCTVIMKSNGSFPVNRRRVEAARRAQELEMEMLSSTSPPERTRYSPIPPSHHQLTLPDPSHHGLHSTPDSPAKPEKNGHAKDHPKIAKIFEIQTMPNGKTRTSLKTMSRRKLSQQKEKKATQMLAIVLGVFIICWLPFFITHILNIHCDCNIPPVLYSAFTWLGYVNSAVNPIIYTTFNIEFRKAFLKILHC
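PathHunter beta-arrestin assay in DiscoveRx D2 cells. Compounds were added with an EC20 of dopamine (50 nM final) for 90 min at 37 deg C. Luminescence was read 1 h after detection reagent, with 57 uM dopamine as the EC100 control.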
CtBP-E1A blk – CtBP/E1A binding inhibition | AlphaScreen GST-E1A/His-CtBP binding, 1536-well; hits give low values; control for the full effect not named in the record | activity change, % (no concentration beside the values) | 0.49% of 340,000 active | AID 651724; in the data active means activity change below about -65%; inconclusive means about -30% to -65%; inactive means above about -30%; note: % is set by controls: 0 for no effect and ±100 for the full control effect; compound concentration not given in the record
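GST-E1A and His-tagged CtBP (125 nM each as 5X stock) were preincubated with pin-transferred compound for 2 h at 37 °C in the dark, then glutathione donor and nickel acceptor beads were added for 1 h before AlphaScreen reading.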
PINK1 modulator – changes PINK1 expression; PINK1 immunofluorescence, high-content cytometry, 24 h; Potency, µM (top dose mostly 76.6 µM), for inactives: at the highest dose activation (PINK1 increase), usual class: activators; 0.2% of 410,000 active; AID 624263; active = well fitted activation curve with a large enough effect; inconclusive = small, poorly fitted or top-dose-only effect; inactive = flat fitted curve, though single readings scatter; cell line not stated here;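 note: potency is the fitted concentration of half-maximal effect; % of control where 0% means no effect; nearly all actives have a fitted effect of over 65% in size; a mitochondrial uncoupler was the plate control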
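PINK1 protein, normally rapidly degraded, was detected by immunofluorescence after 24 hour compound treatment of a stable cell line. Titration data (5 concentrations) came from laser-scanning cytometry, with CCCP-treated wells as controls.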
D2 ag – human D2 receptor agonism in beta-arrestin assay. DiscoveRx PathHunter D2 beta-arrestin, luminescence, 90 min; 100% = 57 uM dopamine signal. P14416. 0.084% of 360,000 active. activation, % (no concentration beside the values); in the data active = activation above about 40%; inconclusive = about 15% to 40%; inactive = below about 15%; note: compound concentration not given in the record; the text of the record calls up to 30% inactive
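Agonist mode: compounds alone added to overnight-plated D2 PathHunter cells for 90 min at 37 C, with 57 uM final dopamine (EC100) defining full response. Beta-arrestin recruitment detected by chemiluminescent reagent, read after 1 h at ambient temperature.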
Active calls of the source: *; ? = inconclusive; . = not tested or not shown; [ ] = dose if it differs, or a comment.

SMILES | Six1-Eya2 inh | TRPML1 agonist | D2 PAM | CtBP-E1A blk | PINK1 modulator | D2 ag
C=CCOc1c(Br)cc(/C=C(\C#N)C(N)=O)cc1OC | 10 | 1.8 | -3 | 0 | 4.0% | 0.0
O=C(Nc1cccc(C(=O)O)c1)Nc1ccccc1Cl | 3 | -0.7 | -6 | 1 | 0.7% | -3.1
NS(=O)(=O)c1ccc(CCNC(=O)C2CCCO2)cc1 (configuration not stated) | 3 | -0.8 | -4 | 7 | -1.2% | -0.9
CCn1c(CCNC(=O)c2ccc(Cl)cc2)nnc1SCC(=O)NC1CCCC1 | 1 | 4.4 | -11 | 4 | -0.1%[38.3 µM] | -2.5
CC1CCCCC1NC(=O)COC(=O)c1cc(=O)[nH]c2ccccc12 (configuration not stated) | -9 | 2.0 | 10 | 0 | 1.7% | -2.9
NC(=O)c1c(C(F)(F)F)cc(-c2ccccc2)nc1NCCO | 0 | -0.3 | -4 | -2 | 0.4% | 0.6
O=C(NC1(C(F)(F)F)NC(=O)N(c2ccc(F)cc2)C1=O)c1cccs1 (configuration not stated) | -3 | -0.1 | -9 | 3 | 5.3% | -3.6
O=C1CCCc2c1cc(C(=O)NCc1ccco1)c(=O)n2-c1ccc(Cl)cc1 | -5 | 0.5 | -3 | -3 | -0.4% | -0.8
CCc1c(C)c2ccc(OCC(=O)OC)cc2oc1=O | -3 | 0.3 | -8 | 2 | -3.1%[38.3 µM] | -2.6
CC(C)OC(=O)c1ccc2ccc(-c3ccccc3)nc2c1 | 48 | 0.1 | 1 | 44 | 11% | -1.6
Cn1c(CNC(=O)CNC(=O)c2cccc(Cl)c2)cc(=O)n(C)c1=O | 1 | -0.5 | 3 | 8 | 0.8% | 0.0
Nc1nonc1C(=O)NCCN=Cc1ccccc1O | 8 | 0.0 | 8 | 6 | 0.7% | 1.6
Cc1nn(C)c(C)c1Sc1ccccc1N | -6 | -1.0 | -4 | 3 | 1.1% | -0.1
O=C(/C=C/c1ccc([N+](=O)[O-])cc1)NC1CC2CCC1C2 (configuration not stated) | -1 | 0.5 | -7 | 7 | -1.3% | -0.1
CCOC(=O)/C(=N/Nc1ccc(Br)cc1)N1CC(C)OC(C)C1 (configuration not stated) | -14 | 2.2 | -7 | -21 | 18% | 12
Cc1cc(Br)ccc1OCC(=O)NNC(=O)Cc1ccccc1 | 2 | 5.2 | 2 | 2 | 0.7% | -0.4
Cc1cccc(NC(=O)CSc2nnc(CCNC(=O)OC(C)(C)C)o2)c1C | 0 | 3.5 | -1 | 5 | 0.0% | -1.1
CCOC(=O)c1c(-c2ccc(-c3ccccc3)cc2)csc1NC(=O)CCC(=O)O | -12 | . | 5 | -10 | 0.6% | -0.8
O=C(O)C1CCCN(S(=O)(=O)c2ccc(-c3ccc(=O)[nH]n3)s2)C1 (configuration not stated) | -1 | 0.0 | -6 | -6 | -0.9% | -3.2
Cc1cc(C(=O)OCC(=O)NC2CCS(=O)(=O)C2)c(C)n1-c1ccccc1 (configuration not stated) | -18 | -0.4 | 1 | -5 | 0.5% | 2.4
COCCN(CC(=O)Nc1cccc(C)c1C)C(=O)CN1C(=O)NC2(CCCCC2)C1=O | -1 | -0.7 | -2 | . | 2.6% | -0.7
COc1ccc(NC(=S)N2CCc3ccccc3C2)cc1 | -8 | -0.7 | -25 | -29 | -1.0% | -3.2
CC(=O)N(Cc1ccc(F)cc1)Cc1nc2ccccc2c(=O)[nH]1 | 2 | 0.0 | -4 | . | 2.6% | -5.9
O=C1CS(=O)CN1c1ccc(Oc2ccccc2)cc1 (configuration not stated) | 2 | -0.2 | -3 | 4 | -1.4% | -3.1
OCCC1CN(Cc2cccc3nccnc23)CCN1Cc1ccc(F)c(F)c1 (configuration not stated) | 8 | -0.6 | -15 | 3 | 1.3% | -2.7

The closing 4 records of the section before open the next one:
SMILES | Six1-Eya2 inh | TRPML1 agonist | D2 PAM | CtBP-E1A blk | PINK1 modulator | D2 ag
COc1ccc(NC(=S)N2CCc3ccccc3C2)cc1 | -8 | -0.7 | -25 | -29 | -1.0% | -3.2
CC(=O)N(Cc1ccc(F)cc1)Cc1nc2ccccc2c(=O)[nH]1 | 2 | 0.0 | -4 | . | 2.6% | -5.9
O=C1CS(=O)CN1c1ccc(Oc2ccccc2)cc1 (configuration not stated) | 2 | -0.2 | -3 | 4 | -1.4% | -3.1
OCCC1CN(Cc2cccc3nccnc23)CCN1Cc1ccc(F)c(F)c1 (configuration not stated) | 8 | -0.6 | -15 | 3 | 1.3% | -2.7
CN(C1=NS(=O)(=O)N=C(N(C)c2ccccc2)O1)c1ccccc1 | -3 | -0.1 | -5 | -6 | -0.7% | -4.5
O=C(NCCCN1CCCC1=O)c1ccc(NS(=O)(=O)c2ccc(F)cc2)cc1 | 5 | -0.1 | -4 | 2 | 0.0% | 3.9
CCOc1ccccc1NC(=O)c1ccc2nc[nH]c2c1 | -18 | -0.5 | 4 | -7 | 2.4% | 5.4
COCc1cc(CN2CCN(Cc3ccsc3)C(CCO)C2)ccc1OC (configuration not stated) | 1 | -0.7 | -16 | 2 | 0.2% | -4.6
Cc1cc(C)cc(OCC(=O)Nc2ccc(N3CCCCC3)cc2)c1 | -8 | 0.2 | -12 | 4 | ? | -0.7
CCOc1ccc(C(=O)N/N=C(\c2ccccc2)c2ccccn2)cc1 | ? | 0.4 | -28 | -67* | -0.4% | -4.4
O=C1NC(Cc2ccccc2)c2nc3ccc(F)cc3c(=O)n2-c2ncccc21 (configuration not stated) | 14 | 2.6 | -4 | -2 | -2.5% | 0.8
CC(C)c1ccc(/C=N/n2c(COc3ccccc3)n[nH]c2=S)cc1 | -16 | 2.5 | -3 | -12 | 8.7% | -5.5
COc1cccc(-c2nnc(NC(=O)c3ccc(S(=O)(=O)N4CCOCC4)cc3)o2)c1 | -10 | 0.1 | 6 | -14 | -1.4% | -1.0
Cc1ccccc1NC(=O)C1CCCN1S(=O)(=O)c1ccc2c(c1)n(C)c(=O)c(=O)n2C (configuration not stated) | 1 | -0.9 | -1 | 0 | -0.7% | -2.7
O=C(N/N=C/C=C/c1ccco1)c1cccc([N+](=O)[O-])c1 | -9 | -0.3 | -24 | -12 | 7.0% | -0.9
O=S(=O)(c1ccccc1)n1cc(-c2cccc3nccn23)c2ccccc21 | -18 | 0.0 | -9 | -15 | 21% | -2.6
Cc1cccc(NC(=S)NCCCN2CCOCC2)c1 | 18 | -0.1 | -21 | 0 | -2.2% | -3.1
CCNc1nnc(CCn2nc(C)c(Br)c2C)s1 | -6 | 2.6 | -3 | . | 0.2% | -1.6
O=C(COc1ccc(-n2cnnn2)cc1)Nc1cccc(Cl)c1Cl | 1 | -0.8 | -3 | -2 | 6.6% | 0.8
CN(C)C(=O)CCC(=O)N1CCCC(N2CCN(c3cccc(C(F)(F)F)c3)CC2)C1 (configuration not stated) | 2 | -0.6 | -15 | 2 | -0.7% | 6.6
CCOC(=O)N1CCN(S(=O)(=O)c2cc(-c3nn4c(C)nnc4c4ccccc34)ccc2C)CC1 | 8 | 0.6 | 4 | -4 | 0.3% | -0.9
Cc1ccc(C(=O)O/N=C(\N)Cc2cccc3ccccc23)cc1 | -8 | 4.2 | ? | -2 | 3.8% | 12
CCOC(=O)CNC(=O)c1cc(-c2ccccn2)nc2c(C)c(Cl)ccc12 | 1 | -0.6 | -4 | -18 | 1.8% | -1.9
CCOc1ccc(NC(=O)Nc2ccc3nsnc3c2)cc1 | -2 | 2.9 | -7 | -1 | 1.4% | -3.9
O=C(NNC1=NC2(CCCC2)Cc2ccccc21)c1cccnc1 | 2 | 0.0 | -8 | 6 | 0.5% | -1.4
COc1ccc(NC(=S)NNC(=O)C(C)n2nc(C)c([N+](=O)[O-])c2C)cc1 (configuration not stated) | -1 | -0.3 | 3 | -3 | 0.9%[38.3 µM] | 0.9
Cc1ccc(S(=O)(=O)n2cc(-c3ccccc3)c3ccccc32)cc1 | 0 | 0.2 | -12 | 22 | 14% | 0.5
COc1cc(OC)cc(-n2nnnc2SCC(=O)NCc2cccs2)c1 | 21 | 1.7 | -5 | 13 | -1.6% | -3.6
Cc1cccc(NC(=O)COC(=O)c2cccc(S(=O)(=O)N3CCCCCC3)c2)c1 | 0 | -0.6 | 0 | 1 | 0.5% | -2.0

An excerpt from above in order of their number in CtBP-E1A blk, high to low.
mol | CtBP-E1A blk
O=C(COc1ccc(-n2cnnn2)cc1)Nc1cccc(Cl)c1Cl | -2
COc1ccc(NC(=S)NNC(=O)C(C)n2nc(C)c([N+](=O)[O-])c2C)cc1 (configuration not stated) | -3
COc1cccc(-c2nnc(NC(=O)c3ccc(S(=O)(=O)N4CCOCC4)cc3)o2)c1 | -14
CCOc1ccc(C(=O)N/N=C(\c2ccccc2)c2ccccn2)cc1 | -67*

(more compounds)
SMILES | Six1-Eya2 inh | TRPML1 agonist | D2 PAM | CtBP-E1A blk | PINK1 modulator | D2 ag
CN(C)S(=O)(=O)N(CC(=O)Nc1ccc(S(=O)(=O)N2CCCC2)cc1)c1ccccc1 | -7 | 3.7 | 10 | 2 | 1.3% | 1.2
CCNS(=O)(=O)c1ccc(Br)c(OC)c1 | -1 | 3.5 | -5 | 0 | -2.7%[38.3 µM] | -0.5
COc1cccc(N(C(=O)Cn2nnc(-c3ccc(C)cc3)n2)C(C(=O)NC(C)(C)C)c2c[nH]c3ccccc23)c1 (configuration not stated) | -6 | 0.3 | -5 | -4 | 2.5% | -0.5
S=c1[nH]nc(-c2ccco2)n1-c1ccccc1Cl | 9 | -0.2 | -5 | 4 | 1.2% | 2.2
Nc1ccc(OCc2ccccc2)cc1[N+](=O)[O-] | ? | 5.0 | -4 | ? | 13% | -2.5
O=C(COC(=O)C1CC(=O)N(Cc2ccco2)C1)Nc1ccc(F)cc1F (configuration not stated) | 7 | -0.7 | 4 | . | 0.2% | -2.0
O=C(CN1C(=O)NC2(CCOc3ccccc32)C1=O)NCc1ccccc1 (configuration not stated) | 7 | 0.5 | -5 | -14 | -0.9% | 3.4
COc1ccc(CCNC(=O)CN2CCN(S(=O)(=O)c3ccc(Cl)cc3)CC2)cc1OC | 22 | -0.1 | -25 | 1 | -0.3% | -2.4
O=S(=O)(c1cccs1)N1CCN(S(=O)(=O)c2cccs2)CC1 | 3 | 0.4 | -12 | 0 | 4.5% | 0.6
Nc1c(C(=O)CSc2nnc(Cc3ccccc3)o2)c(=O)[nH]c(=O)n1C1CC1 | 0 | -0.3 | -3 | . | 1.9% | -6.3
CCN(CC)CC(C)(C)C(=O)/C=C/c1ccc(/C=C/C(=O)C(C)(C)CN(CC)CC)cc1 | 1 | 1.3 | -38 | 1 | 0.9% | -8.4
CCOC(=O)C(=CNc1nc2ccc(C(=O)OCC)cc2s1)C(=O)OCC | -1 | 0.6 | 1 | . | 0.1% | -2.4
Cc1noc(C)c1COC(=O)c1cc(S(=O)(=O)N2CCOCC2)ccc1Cl | 15 | 0.5 | -19 | -15 | 1.3% | -1.8
COCCn1c(C)cc(/C=C2/NC(=O)N(Cc3ccc(C)cc3)C2=O)c1C | -18 | -0.7 | -11 | -10 | 5.6% | -6.5
O=C(CCNC(=O)N1CC(=O)Nc2ccccc21)NCc1cccc(Cl)c1 | -2 | 0.3 | -28 | -3 | -0.3% | -4.3
